VDR inh: inhibitors of human vitamin D receptor; P11473; VDR-SRC2-3 peptide fluorescence polarization, 2 h; Potency, µM, for the others: max response, negative = inhibition, most hits filed as inhibitors; 400,000 compounds, 0.93% hits; AID 504847; active = well fitted inhibition curve with a large enough effect; inconclusive = small, poorly fitted or top-dose-only effect, or another doubt; inactive = no such curve, though single readings can be large or run the other way; note: series mostly up to about 120 µM
Target sequence (P11473 whole entry, looked up): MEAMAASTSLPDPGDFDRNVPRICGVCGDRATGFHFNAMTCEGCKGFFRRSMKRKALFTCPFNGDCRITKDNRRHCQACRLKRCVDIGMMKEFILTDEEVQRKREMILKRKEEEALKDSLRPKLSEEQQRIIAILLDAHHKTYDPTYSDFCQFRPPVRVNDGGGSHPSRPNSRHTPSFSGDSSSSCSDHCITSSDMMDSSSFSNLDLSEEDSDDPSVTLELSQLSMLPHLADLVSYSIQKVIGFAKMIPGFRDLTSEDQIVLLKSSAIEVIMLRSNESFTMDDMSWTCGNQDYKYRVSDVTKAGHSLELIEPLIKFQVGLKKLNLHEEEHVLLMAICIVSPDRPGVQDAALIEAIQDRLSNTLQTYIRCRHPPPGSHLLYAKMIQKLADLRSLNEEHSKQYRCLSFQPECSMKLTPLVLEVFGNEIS
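Reagent solutions, kept cold and dark, are dispensed first; compounds are then pinned in at 23 nl, plates briefly spun, and incubated 2 h at ambient temperature. Inhibition of VDR–SRC2-3 peptide binding is read by fluorescence polarization.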
Active calls of the source: *; ? = inconclusive; [ ] = dose if it differs, or a comment. % is set by controls: 0 for no effect and ±100 for the full control effect; potency is the fitted concentration of half-maximal effect. Not all compounds are listed. The share of hits here may be higher or lower than overall.

Compound	VDR inh
NC(=O)C1CCN(c2nc(-c3cccnc3)cs2)CC1	-17%
Cc1cc(-c2ccco2)n(CC(=O)O)n1	2%
Cc1ccc(C(=O)Nc2ccc(O)cc2C(=O)O)cc1C	98%[activator]
Cc1cc(CN(C)C(=O)c2ccc(OC3CCN(S(=O)(=O)N(C)C)CC3)cc2)n[nH]1	15%
O=C(Nc1ccc(Oc2ccsc2C(=O)O)cc1)c1ccccc1F	-19%
COc1ccc([N+](=O)[O-])cc1NC(=O)C1CCCCC1C(=O)O (configuration not stated)	0%
Cc1ccc(NC(=O)CSc2nc3ncc(Cl)cc3[nH]2)c(C)c1	-13%
NC(=O)CSc1nnc(-c2cccnc2)n1Cc1ccccc1	-1%
CN(CC(=O)Nc1ccc(F)c(F)c1F)C(=O)C1COc2ccccc2O1 (configuration not stated)	-1%
O=C(Cn1cc(C(F)(F)F)cc(Cl)c1=O)NCCc1ccc(Cl)cc1Cl	-1%
CCn1nc(NC(=O)c2ccncc2)c2cc3cccc(C)c3nc21	2%
Cc1cc(/C=C(/C#N)c2cccc(F)c2)c(C)n1-c1cccnc1	0%
CCOc1ccc(NC(=S)NC23CC4CC(CC(C4)C2)C3)cc1	6%
CCS(=O)(=O)N1CCC(C(=O)Oc2ccc(C)c(C)c2)CC1	13%
CCOc1ccc(CNC(=O)CCC(=O)n2ncc3ccc(Cl)cc32)cc1	-4%
O=C(CC1SC(N2CCCCC2)=NC1=O)Nc1cccc(C(=O)Nc2ncccc2O)c1 (configuration not stated)	0%
COc1cc2c(cc1NC(=O)COC(=O)/C=C/c1ccccc1)oc1ccccc12	-18%
Cc1cc(NC(=O)CSc2nc3c(c(=O)n2-c2ccccc2)SC(C)C3)no1 (configuration not stated)	1%
Cc1ccc(S(=O)(=O)N2CCCN(S(=O)(=O)c3ccc4ccccc4c3)CC2)cc1	-3%
O=C(c1ccc(NS(=O)(=O)c2ccc3[nH]c(=O)[nH]c3c2)cc1)N1CCN(c2ccccc2)CC1	?

Exported with the structure last: entries from further up.
VDR inh	Compound
0%	Cc1cc(/C=C(/C#N)c2cccc(F)c2)c(C)n1-c1cccnc1
15%	Cc1cc(CN(C)C(=O)c2ccc(OC3CCN(S(=O)(=O)N(C)C)CC3)cc2)n[nH]1

The listing picks up, repeating the 3 entries before the break.
Compound	VDR inh
Cc1cc(NC(=O)CSc2nc3c(c(=O)n2-c2ccccc2)SC(C)C3)no1 (configuration not stated)	1%
Cc1ccc(S(=O)(=O)N2CCCN(S(=O)(=O)c3ccc4ccccc4c3)CC2)cc1	-3%
O=C(c1ccc(NS(=O)(=O)c2ccc3[nH]c(=O)[nH]c3c2)cc1)N1CCN(c2ccccc2)CC1	?
Cc1ccc(C)c(N(C(=O)Cn2nnc(-c3cccs3)n2)C(C(=O)NC2CCCC2)c2ccncc2)c1 (configuration not stated)	-16%
O=C(CSc1n[nH]c(-c2ccncc2)n1)Nc1ccccn1	-13%
CN(C)S(=O)(=O)c1cccc(NC(=S)NCc2ccco2)c1	-15%
C=CCN1N=C(/C=C/c2ccccc2)CCC1=O	-3%
COc1ccc(CCNC(=O)CCCn2c(SCC#N)nc3ccccc3c2=O)cc1OC	11%
c1ccc(-c2ncc3c(ccc4ccccc43)n2)cc1	8%
Nc1nc2c(ncn2CCC(CO)CO)c(=O)[nH]1	0%
COc1ccccc1-c1cc2nc(C)c(CCC(=O)O)c(C)n2n1	-13%
O=C(Nc1ccc(F)cc1F)c1cccnc1	-20%
Cc1cccc(C(CC(=O)N2CCCCC2)c2ccccc2)c1O (configuration not stated)	2%
CCCCNC(=O)CSc1nc2ccccc2c(=O)n1CCNC(C)=O	0%
CCN(CC)c1nc(-c2ccccc2)ncc1S(=O)(=O)c1ccc(C)cc1	?
O=S(=O)(Cc1ccccc1)N1CCN(c2nc(-c3cccs3)nc3ccccc23)CC1	2%
C1CCCC(N2CCNCC2)CC1	-10%
CCOc1ccc(CC(=O)NCCc2csc(-c3ccc(Cl)cc3)n2)cc1	4%
COc1ccc(C(=O)N2CCC(n3c(C)nc4cc(F)ccc43)CC2)cc1OC	-6%
CCN(CC(=O)Nc1c(F)cccc1F)C(=O)c1ccc(=O)[nH]c1	10%
O=C(CNC(=O)c1cc2ccccc2o1)NCc1cccs1	-13%
COc1ccc(C(C(=O)NCC2CCCO2)N(C(=O)CNC(=O)c2ccco2)c2cc(C)cc(C)c2)cc1OC (configuration not stated)	-14%
COc1ccc(N2CCN(CC(O)COc3ccc(F)cc3)CC2)cc1 (configuration not stated)	23%

The list goes on.
Compound	VDR inh
Cc1cc(NC(=O)CN2CCN(c3ncccn3)CC2)no1	8%
Cc1ccc(C(=O)NC2CC(C)(C)NC(C)(C)C2)c(C)c1	4%
Cc1cc(/C=c2/sc3nc4ccccc4n3c2=O)c(C)n1-c1ccccn1	-5%
O=C(CSc1nnc(-c2ccccc2)n1CC1CCCO1)N1CCCC1 (configuration not stated)	-2%
Cn1cc(-c2cc3n(n2)CCC(=O)N3CCCC(=O)NCc2ccc(F)cc2)c2ccccc21	6%
Cc1ccc(N2CC(NC(=O)CCc3ccccc3)CC2=O)cc1 (configuration not stated)	6%
CC(=O)c1ccc2cccc3c2c1N=CN3C	8%
CCOC(=O)c1ccc2c(c1)nc(SCC(=O)c1cc3ccccc3o1)n2CC	24%
O=C(NC1CCN(C(=O)N2c3ccccc3Sc3ccccc32)CC1)c1ccco1	-8%
COc1ccc(NC(=O)Nc2ccc(C)cc2Br)c(OC)c1	26%
COCC1CCN(Cc2nc(Cc3ccccc3Cl)no2)CC1	-9%
OCCNc1nc(Nc2ccccc2O)nc(N2CCCC2)n1	-10%
Cc1ccc(-n2nc(CO)c(C(=O)NCc3ccccn3)n2)cc1	13%
CS(=O)(=O)N(CCc1ccccc1)CC(=O)N1CCN(Cc2ccc3c(c2)OCO3)CC1	-18%
Cc1cc(C)nc(NS(=O)(=O)c2ccc(NC(=O)c3ccc(O)cc3O)cc2)n1	2%
O=P(CCCCCCCCCP(=O)(c1ccccc1)c1ccccc1)(c1ccccc1)c1ccccc1	2%
C=CCn1c(N)cc(=O)nc1SCC(=O)Nc1ccccc1	7%
OCCCn1c(CCNc2nc(-c3ccc(F)cc3)cs2)nc2cc(C(F)(F)F)ccc21	?
Cc1ccc(C(O)c2nc3ccccc3n2C(C)C)cc1 (configuration not stated)	5%
Cc1ccc(C(=O)N(NC2=NS(=O)(=O)c3ccccc32)S(=O)(=O)c2ccc(C)cc2)cc1	5%

The listing continues:
Compound	VDR inh
O=C(NCc1cccnc1)c1noc2c1CCCCC2	3%
COCCNS(=O)(=O)c1ccc(-c2ccc(C)cc2)cc1	29%
CC1CC(C)CN(S(=O)(=O)c2ccc(C(=O)Nc3nnc(C4CC4)o3)cc2)C1 (configuration not stated)	1%
Cc1nn(C)cc1NC(=O)c1ccc(Br)o1	-10%
CCN(C(=O)CSc1nnc(-c2ccc(F)cc2)n1C)C1CCS(=O)(=O)C1 (configuration not stated)	9%
Cc1cc(=O)c2c(C)nn(-c3ccccc3)c2[nH]1	3%
O=C(COc1cccc(F)c1)NNC(=O)c1cccc(-n2cccc2)c1	-11%
COc1ccc(OC)c(CN(CCN2CCOCC2)S(=O)(=O)c2ccc(NC(C)=O)cc2)c1	-4%
Cc1ccccc1C(=O)NC(=S)Nc1sc2c(c1C#N)CCCC2	-14%
CCOC(=O)c1sc(=S)n(-c2ccccc2Cl)c1C	-6%
COc1ccc(OCC(O)CN(CCO)CC(O)Cn2ccc3ccccc32)cc1 (configuration not stated)	24%
CCOC(=O)CNC(=O)N(CCOC)CC1CCCN(C2Cc3ccccc3C2)C1 (configuration not stated)	-15%
CCOC(=O)c1nc(Nc2ccc(N3CCC(C)CC3)cc2)c2ccccc2n1	2%
CCN(C(=O)CSc1nc2nc(C)cc(C)n2n1)C1CCS(=O)(=O)C1 (configuration not stated)	-15%
CCC1CCC(C(=O)NC(CCSC)C(=O)NCCN(CC(C)C)CC(C)C)CC1 (configuration not stated)	3%
COc1ccc(CCNC(=O)COC(=O)c2ccccc2NCCO)cc1OC	-12%
Cc1c(Cl)cccc1NC(=O)N1CCCC1	-10%
CCN(CC)CCN(Cc1cc2cc3c(cc2[nH]c1=O)OCO3)C(=S)NCC1CCCO1 (configuration not stated)	16%
Cc1cccc(CNC(=O)c2ccc3nc(Cc4ccccc4)oc3c2)c1	6%
Cc1ccn2c(Nc3ccc(C(C)C)cc3)c(-c3ccsc3)nc2c1	3%

Later entries
Compound	VDR inh
COc1cc2ncnc(NCc3ccccc3C)c2cc1OC	-6%
CCC(=O)c1ccc(OC(=O)N2CCOCC2)cc1	-7%
O=C(c1sc2cc(Cl)ccc2c1Cl)N1CCN(CCc2ccccn2)CC1	-8%
COc1ccc(CNC(=O)c2ccc(=O)oc2)cc1OC	-11%
NNC(=O)c1sccc1OCc1ccc(F)cc1	-11%
Cc1[nH]n(-c2ccccc2)c(=O)c1C(=O)c1ccc(Cl)cc1	-5%
Cc1ccc2c(c1)C(O)(C1COC(C)(C)CC1=O)C(=O)N2C (configuration not stated)	5%
COc1cc(NC(=O)COC(=O)c2ccccc2SCC(=O)N2CCCC2)cc(OC)c1	-15%
Cc1ccc(S(=O)(=O)NCCCCCC(=O)NC(C)(C)CO)cc1	13%
CC(C)(C)NS(=O)(=O)c1ccc(CCC(=O)N2CCCC2)cc1	10%
Cc1ccc(C(=O)O)cc1Nc1ncnc2sc3c(c12)CCC3	-5%
CCN1CCN(c2oc(-c3ccccc3C)nc2S(=O)(=O)c2ccccc2)CC1	7%
O=C(N[C@@H](Cc1ccccc1)C(=O)NC1CCCCC1)c1ccco1	7%
CCOc1ccc(S(=O)(=O)Nc2cccc(C(=O)NCC(c3ccco3)N3CCCC3)c2)cc1 (configuration not stated)	6%
COC(=O)/C=C/c1sc2nc(C)cc(C)c2c1N=CN(C)C	-3%
O=C(C1CCC1)N1CCCc2cc(S(=O)(=O)N3CCN(c4cccc(Cl)c4)CC3)ccc21	9%
Cc1ccccc1S(=O)(=O)N1CC(C(=O)O)=CC[C@H]1c1ccc(Cl)cc1	-9%
CCN1CCN(S(=O)(=O)c2ccc(Cl)c(C(=O)Nc3cc(Cl)ccc3N3CCOCC3)c2)CC1	6%
C[C@]12CC[C@@H]3c4ccc(O)cc4CC[C@H]3[C@@H]1CCC2OC(=O)CCC1CCCC1 (some centres not stated)	1%
Cc1ccc(C(=O)N2c3ccccc3N(Cc3ccccc3)C(=O)C2(C)C)cc1	-1%

Entries from the list above that contain a CF3 group, in the order listed:
Compound	VDR inh
O=C(Cn1cc(C(F)(F)F)cc(Cl)c1=O)NCCc1ccc(Cl)cc1Cl	-1%
OCCCn1c(CCNc2nc(-c3ccc(F)cc3)cs2)nc2cc(C(F)(F)F)ccc21	?

Next section.
Compound	VDR inh
CC1(C)O[C@@H]2C[C@H]3[C@@H]4CCC5=CC(=O)C=C[C@]5(C)[C@H]4C(O)C[C@]3(C)[C@]2(C(=O)CO)O1 (some centres not stated)	2%
N=c1sccn1CC(=O)Nc1cccc(S(N)(=O)=O)c1	4%
CCCSC1=C(C#N)C2(CCCCC2)C(C#N)=C(N)N1	-11%
CCc1ccc(NC(=O)c2ccc(CN3CC(=O)N4CCCCC4C3=O)cc2)cc1 (configuration not stated)	3%
CCOC(=O)c1ccccc1Nc1cc(C)nc2nc(C)nn12	6%
CC(=O)c1ccc(OCCCC(=O)NC2=NCCS2)cc1	1%
CC(Oc1ccccc1)C(=O)Nc1cccc(-c2cn3cccnc3n2)c1 (configuration not stated)	14%
O=C(Cc1cccs1)N1CCN=C1SCc1ccccc1F	-12%
Cc1ccccc1NC(=O)NC1CCCc2ccccc21 (configuration not stated)	6%
COc1ccc(CN2CCNC(=O)C2CC(=O)NC2CCCCCC2)cc1C (configuration not stated)	7%
CCCn1c(SCC(=O)Nc2nc3c(s2)CCCC3)nc2c1c(=O)n(C)c(=O)n2C	-5%
C#CCOC(=O)C[N+](C)(C)CC=C	-4%
Cc1cc(C)cc(OCC(=O)N(Cc2ccco2)Cc2ccccc2Cl)c1	4%
Fc1ccc(-c2csc3ncnc(N4CCN(c5ccccc5)CC4)c23)cc1	41%[activator]
O=C(c1cc2c(s1)CCCC2)N1CCN(S(=O)(=O)c2ccccc2C(F)(F)F)CC1	-14%
COc1ccc(S(=O)(=O)N2CCC(C(=O)Nc3nnc(C)s3)CC2)cc1OC	-7%
Cc1cc(NC(=O)CSc2nnc(-c3ccc(Br)o3)n2Cc2ccccc2)no1	9%
COc1ccc(C(=O)OCC(=O)NCC2CCCCC2)cc1F	-19%
COc1ccc(Cl)cc1NC(=O)c1nnn(Cc2cccc(C(F)(F)F)c2)c1N	-22%
O=C(CC12CC3CC(CC(C3)C1)C2)NCC(=O)N1CCc2ccccc2C1	-1%
COc1cccc(NC(=O)CN(C)C(=O)C(C)Sc2ccccc2)c1 (configuration not stated)	7%

Compounds from the list above containing bromine:
Compound	VDR inh
COc1ccc(NC(=O)Nc2ccc(C)cc2Br)c(OC)c1	26%
Cc1nn(C)cc1NC(=O)c1ccc(Br)o1	-10%
Cc1cc(NC(=O)CSc2nnc(-c3ccc(Br)o3)n2Cc2ccccc2)no1	9%

High-throughput results as filed in PubChem BioAssay.
